Screening results (PubChem BioAssay)
VDR inhibitor: Inhibitors of the vitamin D receptor (VDR): qHTS. Vitamin D3 receptor (Homo sapiens), P11473. VDR-SRC2-3 peptide fluorescence polarization, 2 h. Potency, µM, without a hit: max response, negative = inhibition, hits mostly inhibitors. actives 0.93% (n = 400,000). AID 504847, 2011; active = well fitted inhibition curve with a large enough effect; inconclusive = small, poorly fitted or top-dose-only effect, or another doubt; inactive = no such curve, though single readings can be large or run the other way; note: series mostly up to about 120 µM
Target sequence (P11473 whole entry, looked up): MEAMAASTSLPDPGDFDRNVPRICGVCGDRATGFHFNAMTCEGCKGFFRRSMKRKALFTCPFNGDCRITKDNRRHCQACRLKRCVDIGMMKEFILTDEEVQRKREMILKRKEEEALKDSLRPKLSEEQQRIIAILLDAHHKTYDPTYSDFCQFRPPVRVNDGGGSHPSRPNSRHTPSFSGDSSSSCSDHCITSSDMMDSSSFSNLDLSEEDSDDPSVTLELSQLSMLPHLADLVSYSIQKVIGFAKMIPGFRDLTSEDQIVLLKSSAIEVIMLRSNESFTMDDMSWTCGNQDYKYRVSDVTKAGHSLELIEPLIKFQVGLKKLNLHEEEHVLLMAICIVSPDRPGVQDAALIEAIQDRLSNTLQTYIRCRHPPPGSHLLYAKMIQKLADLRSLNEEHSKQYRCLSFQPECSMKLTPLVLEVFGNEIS
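Inhibition of the VDR/SRC2-3 peptide interaction is quantified by fluorescence polarization. Compounds (23 nl, pintool) incubate with the reagents for 2 hours at ambient room temperature.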
An asterisk follows results filed as active; ? = inconclusive; & = joins results of further samples; [ ] = dose if it differs, or a comment. % is set by controls: 0 for no effect and ±100 for the full control effect; potency is the fitted concentration of half-maximal effect. Not all compounds are listed, so the mix of outcomes need not match the whole.

SMILES | VDR inhibitor
COc1ccc(C2C(C(=O)c3ccco3)=C(O)C(=O)N2CC2CCCO2)cc1OC (stereo not given) | 15%
N/C(=N\OC(=O)c1cc(Br)ccc1Cl)c1ccccn1 | 0%
COc1cccc(OC)c1C(=O)Nc1cc2c(cc1N1CCOCC1)n(C)c(=O)n2C | -8%
O=S(=O)(Nc1cccnc1)c1ccc(F)cc1 | 0%
CSc1ccc(/C=C(/NC(=O)c2ccccc2)C(=O)N2CCN(C)CC2)cc1 | 5%
C[C@H](NC(=O)C1CC(=O)N(c2ccc3c(c2)OCO3)C1)C(=O)NC1CCCC1 (stereo not given in full) | ?
CCc1ccc(NC(=O)c2cccc(C(=O)Nc3ccc(CC)cc3)n2)cc1 | -11%
C/[N+]([O-])=C\c1ccc([N+](=O)[O-])o1 | -2%
Cc1c(C(=O)Nc2c(C)n(C)n(-c3ccccc3)c2=O)oc2ccccc12 | -23%
Cc1cc(C)c(NC(=O)c2cc(S(=O)(=O)N3CCCC3)cn2C)c(C)c1 | 14%
Cc1ccc2[nH]c3c(c2c1)CCCC3=O | 7%
COc1ccccc1N1CCN(C(=O)CCn2nc(C)c(S(=O)(=O)N3CCCC3)c2C)CC1 | 17%
O=S(=O)(NCc1cn2ccsc2n1)c1ccc(Oc2ccccc2)cc1 | -2%
Cc1nc(CN2CCN(C(=O)c3ccc(Br)cc3)CC2)cs1 | -10%
CN(C)S(=O)(=O)c1ccc(C(=O)OCC(=O)N2CC3(C)CC2CC(C)(C)C3)cc1 (stereo not given) | -12%
NC(=O)[C@@H]1CCCNc2c(I)cc([N+](=O)[O-])cc2C(=O)N[C@@H](CO)C(=O)NCC(=O)N1 | -16%
Cc1ccccc1NC(=O)NCc1ccc2c(c1)OCO2 | -8%
COc1ccc(CCN(C)C(=O)COc2cccc(-n3cnnn3)c2)cc1OC | -1%
O=C(NC1CCNCC1)C1CC1 | -16%
OCCSc1nc(-c2cccnc2)nc2ccccc12 | 1%
Cc1ccc2c(c1)-c1c(cnn1CC(=O)O)CO2 | 2%
CC(=O)Oc1cccc(-c2nc3ccccc3c(=O)o2)c1 | -17%
COc1ccc(CCN(C)CCCOc2ccc(S(=O)(=O)c3[nH]c4ccccc4c3C(C)C)cc2)cc1OC | -6%
COc1cccc(NC(=O)COC(=O)c2ccccc2C(=O)N2CCN(c3ccccc3)CC2)c1 | -2%
COc1ccc(-c2ccc(C(c3c(C)[nH][nH]c3=O)c3c(C)[nH][nH]c3=O)o2)c([N+](=O)[O-])c1 | ?

Sorted by the number under VDR inhibitor (smallest number first): some entries from above
SMILES | VDR inhibitor
NC(=O)[C@@H]1CCCNc2c(I)cc([N+](=O)[O-])cc2C(=O)N[C@@H](CO)C(=O)NCC(=O)N1 | -16%
Cc1ccc2c(c1)-c1c(cnn1CC(=O)O)CO2 | 2%
COc1ccc(C2C(C(=O)c3ccco3)=C(O)C(=O)N2CC2CCCO2)cc1OC (stereo not given) | 15%
COc1ccccc1N1CCN(C(=O)CCn2nc(C)c(S(=O)(=O)N3CCCC3)c2C)CC1 | 17%

Laid out differently: 4 of the compounds above
smiles,VDR inhibitor
COc1ccccc1N1CCN(C(=O)CCn2nc(C)c(S(=O)(=O)N3CCCC3)c2C)CC1,17%
O=S(=O)(NCc1cn2ccsc2n1)c1ccc(Oc2ccccc2)cc1,-2%
Cc1nc(CN2CCN(C(=O)c3ccc(Br)cc3)CC2)cs1,-10%
CN(C)S(=O)(=O)c1ccc(C(=O)OCC(=O)N2CC3(C)CC2CC(C)(C)C3)cc1 (stereo not given),-12%

Further structures follow:
SMILES | VDR inhibitor
Cc1cc(N2CCN(Cc3ccc4c(c3)OCO4)CC2)n2ncnc2n1 | -8%
Cc1ccc(S(=O)(=O)c2nc(-c3cccc(C)c3)oc2N2CCN(c3ccccc3)CC2)cc1 | 9%
CCOCCCNC(=O)c1c[nH]c2cc(C)ccc2c1=O | -12%
COc1ccc(CNC(=O)c2ccc(CS(=O)(=O)c3ccccc3C)o2)cc1 | -3%
O=C(O)CC1(CC(=O)Nc2ccc3c(c2)C(=O)OC3)CCCCC1 | -26%
COC(=O)Cn1ncc2c(C)n(Cc3ccccc3)c(C)c2c1=O | -25%
CCOc1ccc(N(CC(=O)Nc2c(C)n(C)n(-c3ccccc3)c2=O)S(=O)(=O)c2ccc(F)cc2)cc1 | -12%
Cc1ccc(-c2noc(CCCC(=O)NCc3ccco3)n2)cc1 | 20%
CN(CC(=O)NC(=O)NCc1ccccc1)Cc1cccc(Cl)c1Cl | ?
Cc1ccccc1NC(=O)COC(=O)c1ccc(S(=O)(=O)N2CCCCCC2)cc1 | -2%
COc1ccc(NC(=O)CN2CCN(CC#N)CC2)cc1 | -28%
CC(C)C[C@@]12C(=O)N(c3cccc(Cl)c3)C(=O)N1[C@H](c1ccc(Br)cc1)[C@@H]1C(=O)N(C(C)(C)C)C(=O)[C@@H]12 | 4%
O=C(Cn1c(=O)n(Cc2nc(-c3ccccc3)no2)c(=O)c2cc3c(cc21)OCO3)Nc1ccccc1 | 22%
COCCNC(=O)CS(=O)Cc1nc(-c2ccc(OC)cc2)oc1C (stereo not given) | 0%
O=C(COc1ccc(Cl)cc1)NC1CCSC1=O (stereo not given) | -14%
CCc1nnc(NC(=O)c2oc3ccccc3c2COC(C)C)s1 | -15%
Cc1ccc(SCC(=O)Nc2ccc(S(N)(=O)=O)cc2)cc1 | -12%
CCCn1nnnc1SCC(=O)NNC(=O)c1ccco1 | -5%
CCc1ccc(OC(C)C(=O)Nc2ccc(S(=O)(=O)Nc3nccs3)cc2)cc1 (stereo not given) | -6%
COCc1ccc(C(=O)N2CCC(CCC(=O)Nc3cccc(C)c3)CC2)s1 | ?
O=C(O)[C@@H](O)c1ccccc1 | -2%
Cc1cc(C)nc(NC=C2C(=O)OC(C)(C)OC2=O)n1 | -10%
O=C1CC(C(=O)Nc2ccccc2)N=C(N2CCOCC2)N1 (stereo not given) | -4%
Cc1ccc2c(c1)c1c(n2CC(O)CN2C(=O)CNC2=O)C(=O)CCC1 (stereo not given) | 4%
CN1CCN(c2ccccc2NC(=O)c2ccc(-c3ccccc3[N+](=O)[O-])o2)CC1 | -8%

3 entries from above, as tab-separated lines:
SMILES	VDR inhibitor
O=C(O)CC1(CC(=O)Nc2ccc3c(c2)C(=O)OC3)CCCCC1	-26%
COC(=O)Cn1ncc2c(C)n(Cc3ccccc3)c(C)c2c1=O	-25%
CCOc1ccc(N(CC(=O)Nc2c(C)n(C)n(-c3ccccc3)c2=O)S(=O)(=O)c2ccc(F)cc2)cc1	-12%

Following part.
SMILES | VDR inhibitor
Cc1cc(C)c2nc(NCCCNC(=S)NCCCN(C)C)c(C#N)cc2c1 | -3%
CC(C)C[C@H](N)c1nnc(S(=O)(=O)Cc2ccc(F)cc2)o1 | 32µM*
COc1ccccc1-c1nn2c(-c3cc(-c4ccccc4)n[nH]3)nnc2s1 | -9%
CCN1C(=O)C2CCCCN2c2ccc(C(=O)NCCOC)cc21 (stereo not given) | -10%
COc1ccc(CNC(=O)CCc2cn(C)c3ccccc23)cc1 | 13%
CCn1cc2nc(SCC(=O)Nc3ccc(OC)cc3OC)n(Cc3ccc(OC)cc3)c(=O)c2n1 | 14%
CCOC(=O)Nc1ccc2c(COC(=O)CNS(=O)(=O)c3ccc(NC(C)=O)cc3)cc(=O)oc2c1 | 9%
Cc1ccc(NC(=O)CN(C)S(=O)(=O)c2ccc(Br)s2)cc1F | 2%
O=CCCCC=O | -5%
CNC(=O)c1c(NC(=O)CS(=O)(=O)c2ccc(F)cc2)sc(C)c1C | 2%
COc1cc(OC)c(NC(=O)c2nnn(Cc3ccc(C)cc3)c2N)cc1Cl | -12%
CC[C@@]1(C(=O)OC)N[C@H](CN(C)C(=O)Nc2ccc(C(F)(F)F)cc2)[C@@H]2C(=O)N(C)C(=O)[C@@H]21 | ?
COc1cc(C(=O)COC(=O)c2cnc(C)cn2)ccc1OC(F)F | -6%
COC(=O)c1ccc2c(=O)n(Cc3ccco3)c(SCC(=O)Nc3ccccc3Cl)nc2c1 | -6%
Cc1cc(Br)ccc1SCC(=O)OCC(=O)NCc1ccc2c(c1)OCO2 | -17%
O=C(CN1C(=O)COc2ccc(S(=O)(=O)N3CCCCCC3)cc21)NCCc1ccccc1 | -4%
NC(=O)c1ccc(NC(=O)c2ccccc2S(=O)(=O)c2ccccc2[N+](=O)[O-])cc1 | 2%
CCc1ccc(NC(=O)c2cc(C(C)C)on2)cc1 | -4%
CCCN1CCC(=O)NC1=S | 19%
O=C(NNc1ccccc1)C(=O)NNS(=O)(=O)c1ccc([N+](=O)[O-])cc1 | -5%
CC(C)C[C@@H](CO)N(Cc1ccccc1)S(=O)(=O)N(Cc1ccccc1)[C@H](CO)CC(C)C | -2%
COc1ccc(NC(=O)Cn2c(=O)n(-c3ccc(CC(=O)NCc4ccco4)cc3)c(=O)c3ccccc32)cc1 | 2%
COC(=O)[C@H](CCSC)NC(=O)NCCc1ccc(F)cc1 | -6%
O=C(COc1ccc(/C=N/NC(=O)C(=O)N2CCCCC2)cc1)Nc1ccccc1Cl | 29%
COc1ccc(/C(N)=N/OC(=O)C2CCCCC2)cc1OC | 41%[activator]
Following part.
SMILES | VDR inhibitor
O=C(N/N=C\c1ccc2c(c1)OCO2)c1ccco1 | 2%
CC1CC(=O)Nc2ccccc2N1C(=O)CN1CCN(c2ccccc2)CC1 (stereo not given) | -11%
CCn1nnnc1SCC(=O)c1ccc2c(c1)OCCO2 | -1%
CCOc1cc(C2C(C(=O)N3CCCCC3)=C(C)NC3=C2C(=O)CCC3)cc(Br)c1O (stereo not given) | 1%
CCOc1ccccc1NC(=O)CN(C)S(=O)(=O)c1cccc2nsnc12 | 1%
O=C(c1ccc(Cl)cc1Cl)n1nnc2ccccc21 | 3.5µM*
CCCCCCCCOC(=O)CCn1[nH]c(=O)c2ccccc2c1=O | -5%
Cc1cc(C(F)(F)F)nn1-c1nc(-c2ccco2)cc(C(F)(F)F)n1 | 5%
CSc1ccccc1NC(=O)COC(=O)c1ccccc1O | 2%
Cn1nnnc1SCCCNCc1cc(Cl)ccc1OCc1ccccc1F | 5%
N#CCCN(C(=O)c1ccco1)c1ccccc1 | 15%
O=C(N/N=C/c1ccc2ccccc2c1)c1ccc(COc2ccc3c(c2)CCC3)o1 | 0%
CSCCC(NC(=O)c1cccc([N+](=O)[O-])c1)C(=O)OCC(=O)N1CCCC1=O (stereo not given) | -12%
COc1ccc(C2CC(c3ccc(C)cc3)Nc3nc(N)nn32)cc1 (stereo not given) | -16%
O=C(NCCO)c1ccc(-c2nnc(Nc3ccc(OC(F)(F)Cl)cc3)c3ccccc23)cc1 | 3%
Cc1cn(-c2ccc(Br)cc2)[nH]c1=O | -5%
Cc1ccc(OCC(=O)NS(=O)(=O)c2ccc(Cl)cc2)cc1 | 0%
Oc1c(N=Nc2ccccc2)sc2ccccc12 | -21%
Cc1c(-c2nnc(-c3ccc(C(F)(F)F)cc3)o2)cnn1-c1ccccc1 | -27%
COc1ccc(CNC(=O)c2c(-c3cc(Cl)c(OC)c(Cl)c3)noc2C)cc1 | -24%
Cc1ccc(COc2ccsc2C(=O)NN)cc1 | -19%
COc1cc(OC)c(OC)cc1/C=N/NC(=O)C[n+]1ccccc1 | 4%
Fc1ccc(C(c2nnnn2Cc2cccs2)N2CCN(C3CCCCC3)CC2)cc1 (stereo not given) | -18%
COc1ccc(-c2nc(N)n[nH]2)cc1 | -14%
Cc1ccc(-c2nn(-c3ccccc3)cc2C=O)o1 | 2%
Other compounds.
SMILES | VDR inhibitor
COc1ccc(-c2csc(NC(=O)c3c(OC)cccc3OC)n2)cc1 | -9%
Cc1ccsc1C(C(=O)NC1CCCCC1)N(C(=O)Cc1cccs1)C1CC1 (stereo not given) | -12%
O=C(C1CCN(S(=O)(=O)c2ccccc2)CC1)N1CCN(Cc2ccccc2)CC1 | -15%
Cc1cc(C(=O)c2ccccc2)cc(C)c1O | -5%
O=C1Nc2ccc(S(=O)(=O)NCC3CCCO3)c3cccc1c23 (stereo not given) | 2%
NC1(C#Cc2ccc3oc(=O)c(-n4cc(C5(O)CCCCC5)nn4)cc3c2)CCCCC1 | 11%
CC(C)C(=O)Nc1ccc(S(=O)(=O)Nc2ccccn2)cc1 | -3%
CC(C)Cn1c(N)c(C(=O)COC(=O)c2ccc(O)cc2O)c(=O)n(C)c1=O | ?
COC(=O)COc1ccc(-c2nn(C)c(=O)c3ccccc23)cc1 | -12%
COc1ccc(COC(=O)CCN=C2NS(=O)(=O)c3ccccc32)cc1F | -17%
CC(=O)C1C(c2ccccc2OC(F)F)NC(=O)NC1(O)C(F)(F)F (stereo not given) | -12%
CCN(C(=O)C(C)Sc1nnc(-c2ccncc2)n1C)C1CCCCC1 (stereo not given) | -19%
CCCCOc1ccccc1/C=N/NC(=O)CC#N | 2%
Cc1cc(Cl)ccc1NNC(=O)c1c(C)noc1C | ?
Cc1nn2c(=O)cc(COC(=O)c3cccc(NC(=O)c4ccc(F)cc4)c3)nc2s1 | 1%
CCCCCCCC(=O)NNC(=O)Cc1ccccc1 | -7%
Cc1cc(C)cc(NC(=O)CCC(=O)N2CCSc3ccccc32)c1 | -5%&2%
O=C(CCS(=O)(=O)c1ccccc1)N1CCN(c2ccccc2F)CC1 | -3%
O=C(CNC(=O)c1ccco1)NNC(=O)c1n[nH]c(=O)c2ccccc12 | 14%
CO/N=C(/CS(=O)c1ccc(Br)cc1)c1ccc(OC)cc1 (stereo not given) | 1%
CCCCn1c2c(c(=N)c3ccccc31)CCC2 | 16%
CCN(CC)CCn1c2c(c(SCC(=O)Nc3ccc(C(C)C)cc3)nc1=O)CCC2 | -5%
Cc1ccc(S(=O)(=O)N2CCC(=O)N(C(COCc3ccccc3)C(C)C)CC2)cc1 (stereo not given) | 11%
Cc1oc(-c2ccc(Cl)cc2)nc1CN1CCC(C(=O)NCCCN2CCOCC2)CC1 | 5%
CC(C)(C)C1CCC(OCC(O)CN2CCN(Cc3ccccc3)CC2)CC1 (stereo not given) | -3%
O=C(Nc1nnc(-c2ccncc2)o1)C1CCCCC1 | -17%
